Assay outcomes (PubChem)
GLA inh pH 4.5: alpha-galactosidase A (human) inhibition, pH 4.5; AID 1467; P06280; 230,000 tested, under 10 active; purified enzyme, 4-MU-alpha-Gal fluorescence, pH 4.5; activity change, negative = inhibition, % at 105 µM; inconclusive = small, poorly fitted or top-dose-only inhibition, or a rising curve; inactive = flat fitted curve, though single readings scatter; no compound was filed as active;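 note: 0% = full activity with enzyme and -100% = basal without enzyme; dose as in the result columns while the protocol names 77 µM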
miR-21 FLuc: raises the signal of a miR-21 reporter | HeLa miR-21 FLuc reporter, luciferase, 48 h | Potency, µM (titrated, usually from 38.3 µM), for the others: at the highest dose reporter change, positive = more light | 340,000 tested, under 10 active; active = well fitted rising curve with a large enough effect; inconclusive = small, poorly fitted or top-dose-only effect; inactive = no such curve, though single readings can be large or run the other way;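 note: % of control where 0% means no effect; miR-21 action dims this reporter so a rising signal means less miR-21 action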
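HeLa miR-21-FLuc reporter line, endogenous miR-21; 2000 cells/well in DMEM/10% FBS; compound titration up to ~40uM final, 48 h, 37 degree Celsius; luciferase detection reagent, 15 min lysis, CCD luminescence.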
Rango dissoc inh: prevents RanGTP from dissociating the Rango-importin beta complex; O95149+P62826; Biochemical FRET Rango-importin beta, RanGTP-induced dissociation; Potency, µM (series often up to 46.1 µM), without a hit: top-dose activity change, negative = inhibition; actives 0.071% (n = 340,000); active means falling FRET ratio curve, often poorly fitted, with flat reads before Ran was added; inconclusive means other falling curves, or compound fluorescence or quenching; inactive means flat or rising ratio curve;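 note: potency is the fitted concentration of half-maximal effect; % of control where 0% means no effect; nearly all actives have a fitted effect of over 45% in size; -100% = wells without RanGTP and RCC1; the record marks most hits as doubtful in a second field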
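Rango (0.1 uM)–importin beta (0.25 uM) complex; RanGTP-RCC1 trigger; 45 min RT; CFP/YFP FRET read.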
Rango-impB inh: inhibitors of Rango-importin beta complex formation; Q14974; Rango CFP/YFP FRET sensor + importin beta, 45 min; Potency, µM (series often up to 92.2 µM), for the others: top-dose inhibition of complex formation; actives 0.031% (n = 340,000); active = rising FRET ratio curve, often small or poorly fitted; inconclusive = mostly compound fluorescence or quenching in the first reads; inactive = flat curves in all reads;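 note: potency is the fitted concentration of half-maximal effect; 0% = DMSO wells and 100% = buffer wells lacking importin beta; nearly all actives have a fitted effect of over 15% in size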
Target sequence (Q14974 whole entry, looked up): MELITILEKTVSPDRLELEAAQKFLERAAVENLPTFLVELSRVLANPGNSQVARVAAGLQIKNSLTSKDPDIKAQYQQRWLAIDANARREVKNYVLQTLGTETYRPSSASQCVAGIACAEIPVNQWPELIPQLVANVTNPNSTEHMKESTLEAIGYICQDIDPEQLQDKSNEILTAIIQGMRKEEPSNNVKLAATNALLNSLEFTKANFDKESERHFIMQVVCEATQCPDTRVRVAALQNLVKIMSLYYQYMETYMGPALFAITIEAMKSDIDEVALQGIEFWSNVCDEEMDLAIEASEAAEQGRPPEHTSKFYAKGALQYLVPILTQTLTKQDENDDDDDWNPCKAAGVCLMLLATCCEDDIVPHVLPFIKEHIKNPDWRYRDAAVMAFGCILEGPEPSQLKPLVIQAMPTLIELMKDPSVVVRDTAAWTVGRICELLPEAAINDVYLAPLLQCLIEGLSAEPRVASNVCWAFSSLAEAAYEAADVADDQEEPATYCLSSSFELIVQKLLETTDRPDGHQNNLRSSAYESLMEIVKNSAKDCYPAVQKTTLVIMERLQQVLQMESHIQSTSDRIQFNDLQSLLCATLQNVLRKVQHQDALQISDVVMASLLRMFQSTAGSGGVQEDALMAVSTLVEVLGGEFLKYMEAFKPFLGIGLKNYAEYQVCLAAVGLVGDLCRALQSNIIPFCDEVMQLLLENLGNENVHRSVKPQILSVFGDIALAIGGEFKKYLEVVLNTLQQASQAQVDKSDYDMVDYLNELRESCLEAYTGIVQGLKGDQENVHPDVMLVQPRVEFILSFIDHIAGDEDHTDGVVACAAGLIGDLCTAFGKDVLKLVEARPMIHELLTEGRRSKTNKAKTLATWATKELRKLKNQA
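FRET biosensor (snurportin 1 IBB flanked by EYFP and cerulean), 50 nM, with compound 5 min, then 0.125 microM importin beta in PBS, 1 mM DTT, 0.02% Tween-20, 0.1% BSA. CFP/YFP ratio read after 45 min at room temperature; pre-read flags interference.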
The depositor's hits bear a star; u = inconclusive; x = no result given; & = joins results of further samples; [ ] = dose if it differs, or a comment.

The first 2 entries (preview)
cpd | Compound | miR-21 FLuc | Rango-impB inh | Rango dissoc inh | GLA inh pH 4.5
1 | CCCCCCCCCCCCCCCC(O)C[N+](C)(C)CCO (stereo unspecified) | x | 5.2% | -16% | x
2 | O=C(NCCc1ccc(Cl)cc1)C1CCN(C(=O)N2CCOc3ccccc32)CC1 | 17% | -0.3% | -6% | x

The listing (from the top)
cpd | Compound | miR-21 FLuc | Rango-impB inh | Rango dissoc inh | GLA inh pH 4.5
1 | CCCCCCCCCCCCCCCC(O)C[N+](C)(C)CCO (stereo unspecified) | x | 5.2% | -16% | x
2 | O=C(NCCc1ccc(Cl)cc1)C1CCN(C(=O)N2CCOc3ccccc32)CC1 | 17% | -0.3% | -6% | x
3 | COc1cc(CNCC(C)C)cc(Br)c1OCC(=O)Nc1ccccc1 | -5% | -1.4% | 2% | -13
4 | COC(=O)Cc1c(C)c2ccc(OCC(=O)N3CCC(C)CC3)c(C)c2oc1=O | 13% | 5.3% | 1% | x
5 | COc1ccc(S(=O)(=O)N(C)c2ccc(C(=O)N3CCCCC3)cc2)cc1 | 8% | -0.9% | -11% | x
6 | COc1ccccc1CC(=O)N1CCCc2ccccc21 | -3% | 0.3% | -4% | 0
7 | COc1cccc(NC(=S)NN=C2CCC(C(C)(C)C)CC2)c1 (stereo unspecified) | -11% | 0.5% | 1% | 2
8 | N#Cc1cc(C(=O)c2cc(Br)ccc2O)cn(C2CC2)c1=O | -5% | u | -5% | -5
9 | Cc1ccc(S(=O)(=O)N2CCN(C(=O)CCn3cncn3)CC2)cc1C | 0% | u | u | x
10 | O=C(NCc1ccccc1Cl)C1CCN(C(=O)c2sccc2-n2cccc2)CC1 | -1% | u | 31% | 1
11 | CCOn1c(=O)c(=O)n(OC)c2ccccc21 | 0% | 2.1% | 16% | -6
12 | O=C(CCn1cccc1)NC1CCCc2ccccc21 (stereo unspecified) | -5% | -0.4% | -16% | 0
13 | CCOc1ccc(OCCC(=O)OCC(=O)Nc2cccc(S(=O)(=O)N3CCCCC3)c2)cc1 | x | -4.2% | 0% | x
14 | Cc1cnc(C(=O)Nc2cc(S(=O)(=O)N3CCOCC3)ccc2N2CCN(C)CC2)cn1 | 1% | 0.2% | 1% | -11
15 | O=C(O)Cc1csc(-c2cccc(F)c2)n1 | 1% | -1.5% | -16% | -7[21.1 µM]
16 | CC(=O)Nc1nc(SCC(=O)NCc2ccc(F)cc2)[nH]c(=O)c1NC(=O)c1cccs1 | -1% | 3.2% | 2% | 2
17 | CCOC(=O)c1c(C)n(C)c2ccc(OC(=O)c3ccoc3)cc12 | -4% | 2.4% | 7% | -4
18 | CNC(=S)N1N=C(c2ccc(OC)cc2)CC1c1ccc(N(C)C)cc1 (stereo unspecified) | -24% | u | -24% | -1
19 | Cc1ccc(Cn2c(=N)c(S(=O)(=O)c3ccc(Br)cc3)cc3c(=O)n4ccccc4nc32)cc1 | -8% | 3.7% | 26% | x
20 | Cn1cccc1Cc1nnc(SCC(=O)Nc2cccc(F)c2)n1CCc1ccccc1 | -3% | 0.0% | -4% | -2
21 | CC1Cc2ccccc2C(=O)N1 (stereo unspecified) | -1% | -2.4% | 25% | -7
22 | COc1ccc(S(=O)(=O)N(C)CC(=O)N2CCC(C(N)=O)CC2)cc1 | -2% | 0.2% | 0% | 0
23 | CCCCn1c(=O)[nH]c(=O)c2c1nc(-c1ccc(OC(F)F)c(OC)c1)n2C | -18% | 0.5% | -3% | x
24 | COc1ccccc1OCC(=O)OCn1c(SC)nnc(C)c1=O | 3% | -1.3% | -14% | 2
25 | Cc1ccc(C(=O)N/N=C/c2ccc(-c3ccc(Br)cc3[N+](=O)[O-])o2)o1 | -9% | 0.1% | 9% | x
26 | COc1ccc(Cl)cc1C(=O)Nc1ccccc1N1CCN(C)CC1 | u | -3.8% | -12% | -5
27 | Cc1ccccc1/C=N/n1c(COc2ccccc2)n[nH]c1=S | -5% | -1.1% | -19% | x
28 | CCOC(=O)NC(=O)C(=CNc1ccccc1OC)C(=O)NC(=O)OCC | -5% | -1.6% | -1% | -7
29 | O=C(COC(=O)C1CCCO1)Nc1nc(-c2ccc(F)cc2)cs1 (stereo unspecified) | x | -0.2% | 0% | x
30 | CCSc1nc2ccccc2n1C(=O)c1ccc(S(=O)(=O)N2CCCCC2)cc1 | -11% | -0.4% | 2% | -2
31 | CNC(=S)N(Cc1ccc(Cl)cc1)Cc1cccs1 | -3% | -3.1% | 14% | 2
32 | COc1ccc(N2C(=O)C3CCCN3C2c2ccc(F)cc2)cc1Cl (stereo unspecified) | -10% | -2.6% | -10% | -6
33 | CCOC(=O)N1CCN(S(=O)(=O)N2CCCC(C(=O)NCc3ccc(OC)cc3)C2)CC1 (stereo unspecified) | u | -0.9% | 6% | x
34 | Cc1ccc(S(=O)(=O)NCCCNC(=O)c2ccccc2)cc1 | -4% | 6.6% | -6% | -6
35 | CCOC(=O)C1CSC(CC(=O)Nc2ccc(Cl)cc2)C(=O)N1 (stereo unspecified) | -1% | 2.3% | 3% | -3
36 | COc1cc(C(N)=O)cc(Br)c1OC | 5% | 2.2% | 12% | 4
37 | COc1ccc(NC(=O)C(Cc2ccccc2)n2cccc2)cc1OC (stereo unspecified) | 8%&0% | -0.2% | -2% | -11
38 | O=C(CNC(=O)c1ccccc1Cl)OCC(=O)N1CCc2ccccc21 | -38% | -1.1% | -7% | -7
39 | COc1ccc(NC(=O)CCSCCc2ccccn2)cc1OC | 0% | -4.0% | -10% | 12
40 | Cn1cnnc1SCC(=O)Nc1ccc2nc(SCc3ccccc3Cl)sc2c1 | -47% | -1.3% | -4% | 0
41 | O=C(CN(c1ccccn1)S(=O)(=O)c1ccc(F)cc1)Nc1ccccc1 | 3% | 1.5% | -3% | 3
42 | O=C(NCC1CCCO1)C(c1cccnc1)N(C(=O)Cc1cccs1)c1ccccc1 (stereo unspecified) | -24% | -4.1% | -4% | 0
43 | Cc1ccc(C2C(C#N)=C(N)Oc3nc(-c4ccccc4)[nH]c32)o1 (stereo unspecified) | -1% | 3.5% | -7% | 4
44 | Cc1cccc(C)c1NC(=O)COC(=O)c1ccc2[nH]c3c(c2c1)CCCC3 | -10% | u | 23µM* | 10
45 | O=C1Cc2ccccc2C(=O)N1CCc1ccccc1 | 1% | 2.2% | -2% | 1
46 | CCOC(=O)CC(NC(=O)c1cc2ccccc2oc1=O)c1cccc([N+](=O)[O-])c1 (stereo unspecified) | -7% | -1.0% | 10% | 4
47 | COc1ccccc1NS(=O)(=O)c1ccc(C(=O)N2CC(C)OC(C)C2)cc1 (stereo unspecified) | x | 0.3% | -7% | x
48 | CCN1C(=O)[C@H]2[C@@H](c3ccc(-c4cc(C(C)=O)cs4)cc3)N[C@@](Cc3ccccc3)(C(=O)OC)[C@H]2C1=O | x | -0.1% | -12% | x
49 | CCOC(=O)N1CCN(C(=O)CS(=O)(=O)c2cn(Cc3ccccc3C)c3ccccc23)CC1 | -9% | 0.3% | 22% | -4
50 | O=C(O)CC(NNC(=O)c1ccccc1)C(=O)Nc1cccc([N+](=O)[O-])c1 (stereo unspecified) | -24% | -2.2% | 6% | 0
51 | CCc1cccc(NC(=O)CCCn2c(=O)[nH]c3ccsc3c2=O)c1 | 2% | 5.7% | 3% | x
52 | O=C(Oc1ccc(Br)cc1C(=S)N1CCCC1)c1ccccc1F | -3% | -1.2% | 10% | 5
53 | COc1ccc(S(=O)(=O)/N=C2/NC(=O)/C(=C\c3cc(OC)c(OC)cc3[N+](=O)[O-])S2)cc1 | -6% | 5.9% | -3% | 5
54 | COC(=O)c1ccc(NC(=O)c2cccc(N3C(=O)C4C5C=CC(C6CC56)C4C3=O)c2)cc1 (stereo unspecified) | -14% | -0.8% | 1% | x
55 | Cc1cc(C)nc(N2CCC(C(=O)NC3CCCc4ccccc43)CC2)n1 (stereo unspecified) | 0% | 0.5% | 1% | 3
56 | Cc1ccc(S(=O)(=O)c2c(C)nn(C(C)(C)C)c2OC(=O)C(C)(C)C)cc1 | 3% | -1.9% | -3% | 0
57 | O=C(CNC(=O)Cc1ccccc1)NCC(=O)OCc1ccc(C(=O)c2ccccc2)cc1 | -7% | -1.9% | -7% | 2
58 | NC(=O)c1ccc(NC(=O)COC(=O)CNC(=O)c2sc3ccccc3c2Cl)cc1 | x | -1.2% | -10% | x
59 | Cn1c(=O)c2c(nc(Br)n2C/C=N/NC(N)=S)n(C)c1=O | 22% | -0.2% | -2% | 0
60 | COc1ccc(S(=O)(=O)N2CCCOC2CNC(=O)C(=O)NCCCN2CCOCC2)cc1 (stereo unspecified) | 0% | 5.2% | -13% | x

Later entries
cpd | Compound | miR-21 FLuc | Rango-impB inh | Rango dissoc inh | GLA inh pH 4.5
61 | O=C(O)c1ccccc1-c1nc2ccccc2n1-c1ccccc1 | -2% | -4.3% | 3% | -5
62 | CC(/C=N/NC(=O)c1nnn(-c2nonc2N)c1CN(C)C)=C\c1ccco1 | -4% | u | -21% | -13
63 | Cc1ccc(CNC(=O)c2ccc(N3CCc4ccccc43)c([N+](=O)[O-])c2)cc1 | -2% | 0.7% | 23% | 0
64 | COc1c(N2CCN(C(=S)Nc3ccc(F)cc3)C(C)C2)c(F)cc2c(=O)c(C(=O)O)cn(C3CC3)c12 (stereo unspecified) | 0% | -2.1% | -5% | 11
65 | CC12CC3CC(C)(C1)CC(C(=O)Nc1nncs1)(C3)C2 | 7% | 1.3% | 3% | x
66 | CC(=O)c1ccc(N2CCN(C(=O)CNS(=O)(=O)c3ccc4c(c3)OCCCO4)CC2)c(F)c1 | x | -2.7% | -2% | x
67 | Cc1ccc(NC(=S)N2CCC(NC(=O)c3ccco3)CC2)cc1C | -2% | -1.9% | 0% | x
68 | CCOC(=O)Cc1nnc(NC(=O)CC)s1 | -8% | 0.3% | -17% | -2
69 | CC1(C)SC(=S)N(/N=C/c2ccccc2O)C1N(O)C(=O)Nc1ccccc1 (stereo unspecified) | -18% | 0.3% | 27% | -8
70 | CCc1nc(SCC(=O)c2ccccc2)c2c(=O)n(C)c(=O)n(C)c2n1 | 6% | -3.2% | 16% | 6
71 | Cc1ccc(NC(=O)C2CCC(CNc3c(N4CCC(C)CC4)c(=O)c3=O)CC2)cc1F (stereo unspecified) | 0% | 4.8% | -2% | 0
72 | O=C1OCC=C1NNC(=O)c1cccnc1 | -1% | 2.2% | 1% | u
73 | CN(CC(=O)NC(=O)NCc1ccccc1)Cc1ccc(Cl)c(Cl)c1 | -2% | -2.1% | -14% | 2
74 | COc1cccc(OC)c1-c1nn2c(-c3ccccc3Cl)nnc2s1 | -33% | 10% | -6% | -1
75 | CCOC(=O)C(C)On1c(-c2ccc(Cl)cc2)nc2ccc([N+](=O)[O-])cc21 (stereo unspecified) | -65% | 1.9% | 11% | 0
76 | O=C(c1cccc2ccccc12)C1CCCN(C(=O)CCN2CCCO2)C1 (stereo unspecified) | -5% | -5.0% | -3% | -1
77 | C[C@@H]1CC=C[C@H]2[C@H]1C(=O)N(Cc1ccccc1)[C@H]2c1ccoc1 | 17% | -3.0% | -4% | 1
78 | Cc1ccc(CNC(=O)c2oc3ccc(S(=O)(=O)N4CCOCC4)cc3c2C)cc1 | 16% | 2.3% | 3% | 1
79 | C=CCNc1nc(-c2c(C)nc3sccn23)cs1 | -26% | -2.7% | -4% | 0
80 | CCCn1cc(SCC(=O)Nc2nnc(C)s2)c2ccccc21 | -2% | 1.4% | -5% | -5
81 | O=C(CSc1ccc(Cl)cc1)Nc1ccc(C2SCCS2)cc1 | -13% | 2.1% | 0% | 0
82 | Cn1c(CO)cnc1S(=O)(=O)Cc1ccc(Cl)cc1 | 5% | 1.5% | -8% | 2
83 | Cc1cccc(C)c1NC(=O)C1(NC(=O)C2CCCN2C(=O)OC(C)(C)C)CCCCC1 (stereo unspecified) | 1% | 1.7% | -7% | -5
84 | O=C(c1cc2ccccc2oc1=O)N(Cc1ccco1)C1CCS(=O)(=O)C1 (stereo unspecified) | -46% | -0.4% | -6% | 4
85 | Cc1cc(NC(=O)c2cnn3c(C(F)F)cc(-c4ccccc4)nc23)no1 | -7% | -0.7% | 5% | -3

Record cards, as listed above. Order of screens: miR-21 FLuc | Rango-impB inh | Rango dissoc inh | GLA inh pH 4.5
Profile of Cn1c(CO)cnc1S(=O)(=O)Cc1ccc(Cl)cc1 : 5% | 1.5% | -8% | 2
Profile of Cc1cccc(C)c1NC(=O)C1(NC(=O)C2CCCN2C(=O)OC(C)(C)C)CCCCC1 (stereo unspecified) : 1% | 1.7% | -7% | -5

Some of the compounds tested. The share of hits here may be higher or lower than overall.
